Assay outcomes as filed in PubChem.
UCH37 DUB inh = human UCH37 deubiquitinating enzyme inhibition. Q9Y5K5. purified proteasome/UCH37, Ub-AMC cleavage fluorescence. inhibition, % (concentration not given with the values). hit rate 0.33% among 330,000. AID 588478;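 active = mean of two replicates above 20%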;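 also: 0% = compound-free wells with enzyme and 100% = wells lacking proteasome; stock transfer was 100 nL into about 20 µL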
Target sequence (Q9Y5K5 whole entry, looked up): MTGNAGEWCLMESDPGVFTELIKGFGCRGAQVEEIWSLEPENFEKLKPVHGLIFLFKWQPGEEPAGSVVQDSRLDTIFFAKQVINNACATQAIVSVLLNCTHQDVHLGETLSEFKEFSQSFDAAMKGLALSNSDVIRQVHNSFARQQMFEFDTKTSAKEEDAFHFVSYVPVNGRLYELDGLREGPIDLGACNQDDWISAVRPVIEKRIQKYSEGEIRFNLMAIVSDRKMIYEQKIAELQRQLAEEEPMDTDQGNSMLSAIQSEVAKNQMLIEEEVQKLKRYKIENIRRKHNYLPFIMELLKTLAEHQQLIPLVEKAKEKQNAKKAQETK
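Material: Human UCH37 enzyme supplied as purified proteasome complex | Schedule: 30 min compound-proteasome preincubation then 25 min substrate reaction, room temperature | Detection: AMC fluorescence from Ub-AMC cleavage, excitation 355 nm, emission 460 nm | Benchmarks: Wells without proteasome as full block, compound-free enzyme plus substrate as uninhibited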
Beta cell apopt = beta cell apoptosis inhibition. hit rate 0.8% among 300,000. INS-1E cytokine-induced death, ATP luminescence, 48 h; percent of positive-control rescue, neutral wells zero. protection from apoptosis, % (no concentration beside the values);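 active = all replicates at 75% or more, or half of them and the mean; inconclusive = half reach 75% but not the mean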;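 also: 0% = cytokine-treated negative control wells and 100% = positive control rescue; higher means more ATP so stronger rescue from cytokine killing; wells of about 40 µL received 100 nL stock; the first replicate is given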
Bfl-1 A1 inh = inhibitors of the anti-apoptotic protein A1, read as caspase activation; AID 2462; caspase activation, % (test concentration not listed); hit rate 0.066% among 330,000; MEF A1-2A-BIM cells, Caspase-Glo 3/7 luminescence, 3 h; percent of clofoctol response, vehicle zero;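 active = over half of replicate activation scores above 10%, or exactly half above 10 with the replicate mean above 10; inconclusive = replicate mean below 10 yet half the replicates above 10; inactive = over half of replicates below 10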;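 also: wells of about 30 µL received 50 nL stock; many hits fall short of the cut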
FGF22 binding = shifts melting point of recombinant human FGF22; hit rate 1.5% among 340,000; recombinant FGF22 thermal shift, SYPRO orange fluorescence; percent of sucrose octasulfate shift, DMSO zero; Q9HCT0; AID 651658; calls only at 9.99 µM;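 active = melting point raised past a set limit in the mean and every replicate; inconclusive = no clear call; three in four hits are not shown here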
Target sequence (Q9HCT0 whole entry, looked up): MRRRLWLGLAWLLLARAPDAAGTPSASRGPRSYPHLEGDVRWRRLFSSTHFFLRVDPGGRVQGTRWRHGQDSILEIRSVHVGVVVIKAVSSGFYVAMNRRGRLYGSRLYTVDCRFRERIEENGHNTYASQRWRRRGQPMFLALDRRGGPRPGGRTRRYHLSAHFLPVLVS
E coli growth = blocks Escherichia coli growth | OD600, 23 h; hits give low values | OD600 absorbance (test concentration not listed) | hit rate 0.21% among 330,000;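 active = OD600 absorbance below the run mean of sample wells minus 3.6 SD, in any replicate, cut at about 0.56 in these data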;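 also: stock transfer was 300 nL into about 60 µL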
AF4-AF9 inh = MLL-AF4/AF9 protein interaction inhibition | AlphaScreen, biotin-AF4 peptide binding to FLAG-AF9 | inhibition, % at 10 µM | hit rate 0.47% among 350,000;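 active = every replicate reaching a set inhibition limit, whatever the replicate mean, cut at about 25% in these data; inconclusive = mean inhibition reaches that limit but some replicates miss it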;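 also: 0% = plate neutral control median and 100% = total signal loss; the record names both 10 and 1 µM as test concentration; the first replicate is given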
Target sequence (P42568 whole entry, looked up): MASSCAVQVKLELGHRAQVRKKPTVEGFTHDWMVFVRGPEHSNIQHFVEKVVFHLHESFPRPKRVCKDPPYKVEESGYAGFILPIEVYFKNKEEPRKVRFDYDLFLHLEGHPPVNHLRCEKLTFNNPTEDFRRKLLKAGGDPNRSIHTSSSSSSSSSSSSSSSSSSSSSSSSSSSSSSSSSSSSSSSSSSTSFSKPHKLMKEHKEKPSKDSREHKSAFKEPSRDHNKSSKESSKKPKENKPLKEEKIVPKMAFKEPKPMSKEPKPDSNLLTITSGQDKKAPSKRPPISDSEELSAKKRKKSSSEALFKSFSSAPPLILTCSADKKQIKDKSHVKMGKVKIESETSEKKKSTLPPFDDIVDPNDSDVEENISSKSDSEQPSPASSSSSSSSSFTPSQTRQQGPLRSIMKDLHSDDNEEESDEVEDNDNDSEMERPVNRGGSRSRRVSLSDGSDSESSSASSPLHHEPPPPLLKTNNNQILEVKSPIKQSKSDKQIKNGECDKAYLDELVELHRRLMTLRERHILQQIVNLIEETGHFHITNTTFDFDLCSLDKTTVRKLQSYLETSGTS
T cruzi inh = blocks replication of Trypanosoma cruzi; inhibition, % (no concentration beside the values); T. cruzi beta-gal in NIH3T3, luminescence, 90 h; hit rate 1.4% among 300,000;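 active = mean inhibition across valid replicates above about 55%, limit read from the data; inconclusive = mean below that limit but half or more replicates reach it; inactive = mean below it, under half of replicates reach it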;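 also: signal also drops with host cell toxicity which is not excluded here; 0% = plate median of DMSO wells and 100% = zero luminescence signal; higher percent means less beta-gal luminescence so fewer parasites; stock transfer was 50 nL into about 50 µL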
Ecoli rRNA inh = selective bacterial rRNA inhibition in E. coli. E. coli WT GFP vs humanized-ribosome RFP mutants, fluorescence, 24 h; hits give low values; DMSO median 0, no signal -100. GFP signal change (wild-type ribosome), % (test concentration not listed). hit rate 1.6% among 350,000;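 active = significant combined selectivity score with lowered wild-type GFP, culture density cut under 30%, mutant RFP and density less affected; inactive = any of these conditions unmet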; also: one replicate is shown; some compounds called inactive have numbers as strong as hits
Ecoli rRNA inh OD600 = recorded beside Ecoli rRNA inh, whose call it bears; OD600 change, %; measured here: OD600 growth;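 optical density of the mix in the first replicate; 0 = DMSO median and -100 = no signal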
Ecoli rRNA inh RFP = second read-out of Ecoli rRNA inh, no call of its own (marks repeat the call); RFP signal change, %; measured here: RFP humanized mutant strains;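 first replicate; 0 = DMSO median and -100 = no signal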
* = called active by the depositor; i = inactive; ? = inconclusive; . = not tested or not shown. Only part of the results is shown; the hit share may differ from the screen's.

Values run as follows: UCH37 DUB inh, Beta cell apopt, Bfl-1 A1 inh, FGF22 binding, E coli growth, AF4-AF9 inh, T cruzi inh, Ecoli rRNA inh, Ecoli rRNA inh OD600, Ecoli rRNA inh RFP
CCCCc1nc(NCc2ccccc2)c(C#N)c2c1CCCC2
    -118.1, 2.5, 0.1, i, 0.71, -1.6, 13.8, 14.1, 20.2, 2.6
CCC12CN(C(=O)c3ccc(C)cc3)CC(CC)(CN(C(=O)c3ccc(C)cc3)C1)C2=O
    2.4, -4.3, -0.2, ., 0.678, ., -9.5, ., ., .
CCOC(=O)CNS(=O)(=O)c1cc(-c2n[nH]c(=O)c3ccccc23)ccc1C
    2.5, ., ., ., 0.742, ., 8.8, -16.2, -31.0, 11.1
CCCCSc1ncnc2[nH]ncc12
    2.4, -6.1, -0.1, i, 0.644, -8.6, -3.4, -1.2, -7.4, -6.7
Cc1nc(NC(=O)CSc2nnc(C)n2CC2CCCO2)sc1C (centres undefined)
    3.2, -6.7, 0.9, ., 0.723, ., 3.4, ., ., .
CCOC(=O)c1[nH]cc(-c2ccccc2)c1N1CCOCC1
    1.2, 3.6, 0.4, ., 0.723, ., ., ., ., .
O=C(CNc1n[nH]c(=O)[nH]c1=O)N/N=C/C=C/c1ccccc1
    ., -2.9, -0.3, i, ., 3.9, 3.5, 10.6, 8.1, -1.7
COc1cccc(CNC(=O)CN2C(=O)NC(Cc3ccccc3)(c3ccccc3)C2=O)c1 (centres undefined)
    0.4, -6.1, -1.3, i, 0.649, -3.3, ., -31.1, -27.2, -5.0
Cc1ccc(SC(C)c2nc(-c3ccccc3)no2)cc1 (centres undefined)
    0.4, -8.1, -0.2, ., 0.703, ., -13.6, ., ., .
Cc1ccc(N(C)S(=O)(=O)c2cccc(C(=O)Nc3ccc(N4CCOCC4)cc3)c2)cc1
    2.4, 4.3, 0.9, i, 0.733, 9.9, ., -13.8, -27.5, -1.1
CCn1c(SCC(=O)c2c(N)n(C3CC3)c(=O)[nH]c2=O)nnc1-c1ccccc1OC
    1.4, -1.2, 1.4, i, 0.699, 3.0, ., 6.2, 7.2, -1.5
O=S(=O)(Nc1ccc(O)cc1)c1cccc2cccnc12
    4.1, 4.4, 0.3, i, 0.711, 6.3, -10.9, 0.1, -1.2, 0.7
O=C(c1cccs1)N1CCc2ccccc2C1
    6.8, 0.8, -1.2, i, 0.677, -3.4, 2.9, 14.6, 14.5, 3.1
O=C(c1cc2c(s1)-c1ccccc1S(=O)(=O)C2)N1CCN(Cc2ccccc2)CC1
    2.7, 2.0, -0.2, i, 0.676, 11.4, 5.6, -13.4, -20.9, 1.5
O=C(Cc1ccsc1)NCC(=O)Nc1ccccc1Br
    1.5, -2.0, 0.8, i, 0.693, -0.3, ., 1.7, 3.0, -1.6
CCCCCn1c(CNC(=O)CCC)nc2ccccc21
    -0.4, -2.0, 0.5, i, 0.667, 4.9, 12.5, -2.9, -7.8, -9.4
COc1ccc(C(C)NC(=O)c2ccccc2Cl)cc1OC (centres undefined)
    1.6, 5.7, -0.1, i, 0.612, 4.4, -2.7, 2.6, 1.0, -7.3
COc1ccccc1CN1CC(C(=O)N(C)Cc2ccncc2C)CCC1=O (centres undefined)
    4.3, ., -0.1, i, 0.697, -2.5, -8.0, 8.8, 7.8, -0.8
O=C(c1cc(-c2cccs2)on1)N1CCCCC1
    2.0, -4.3, -3.9, ., 0.634, ., -12.3, ., ., .
CC(=O)N1CSCC1C(=O)NNS(=O)(=O)c1cccc(C(F)(F)F)c1 (centres undefined)
    1.0, -2.5, 0.6, i, 0.63, -1.3, -18.1, 6.8, 8.6, 0.4
COc1ccccc1N1CCN(CCC(=O)Nc2cccc(Cl)c2)CC1
    0.0, -0.5, 0.3, i, 0.663, 4.4, -15.5, -3.1, -7.6, 0.2
Cc1ccc(C)c(S(=O)(=O)NCC(=O)NCc2ccco2)c1
    4.2, -2.7, 0.7, ., 0.642, ., -27.2, ., ., .
COC(=O)C1=C(C(=O)OC)[C@@H]2N(Cc3ccccc3)c3ccccc3[C@@]23C[C@@H](C(=O)OC)N(C(=O)COCc2ccccc2)C3=N1
    0.0, -8.3, 0.3, ., ., ., -10.1, ., ., .
COc1ccc(S(=O)(=O)NCc2ccncc2)cc1OC
    1.6, 8.8, -0.3, ., 0.75, ., -14.6, ., ., .
CCC(C)(C)NC(=O)C(c1ccc(C)cc1)N(CC1CCCO1)C(=O)CCC(=O)Nc1ccccn1 (centres undefined)
    1.4, -9.4, 0.7, i, 0.693, -0.2, -6.3, -5.0, -11.2, -1.2
O=C(O)C(C(O)c1ccccc1)[n+]1ccccc1 (centres undefined)
    4.7, -1.3, 0.0, i, 0.689, 3.6, 10.6, 5.1, 4.0, 0.7
CCOC(=O)CSc1cn2c(n1)CCC2
    0.4, -5.1, -3.2, ., 0.758, ., -2.6, ., ., .
O=C(CSc1nnnn1C1CCCCC1)Nc1nc2c(s1)CCCC2
    1.7, -5.1, -0.2, ., 0.647, ., 32.7, ., ., .
Cc1ccc(-n2nc3c(N4CCC(C(=O)NCCc5ccco5)CC4)nnc(C)c3c2C)cc1
    -14.3, -1.0, -0.3, i, 0.68, -3.3, 31.5, 9.7, 6.1, 6.5
COc1cc(NC(=O)Cc2c(C(=O)O)[nH]c3ccccc23)cc(OC)c1OC
    1.8, -8.6, 0.5, i, 0.712, -5.9, -15.8, 7.8, 11.9, 5.3
O=C(CSc1ccccc1)N1CCN(c2ccccc2)CC1
    2.2, 1.6, 0.5, ., 0.732, ., -3.9, ., ., .
CCOC(=O)CN1C(=O)NC2(CCCc3ccccc32)C1=O (centres undefined)
    -0.9, -3.9, -0.8, i, 0.691, -5.1, -11.6, 7.3, 11.5, -0.5
COCCNC(=O)Cn1nc(C(F)(F)F)c(Br)c1C
    3.4, ., -0.5, ., 0.702, ., -1.0, ., ., .
O=C(Nc1ccc2ccccc2c1)N1CCCN(CCOc2ccccc2)CC1
    8.4, -2.0, 0.0, i, 0.639, -1.9, 3.5, -2.7, -0.6, 4.8
Cc1ccn2cc(C(=O)N3CCN(c4cnn(-c5ccccc5)c(=O)c4Cl)CC3)nc2c1
    3.7, 5.1, -1.0, i, 0.689, 4.0, ., -4.0, -3.5, -2.2
Cc1nnnn1/C(=C\c1ccccc1)C(=O)OCC(=O)N1CC2(C)CC1CC(C)(C)C2 (centres undefined)
    6.5, -4.8, 0.0, i, ., 4.6, -1.7, -4.3, 3.7, 0.7
Cc1ccc(NC(=O)COC(=O)c2ccc(Br)o2)cc1S(=O)(=O)N1CCCCC1
    4.9, -1.9, 0.9, i, 0.71, ?, ., -4.1, -3.2, -1.4
CCCc1nnc(SCC(=O)N2CCCCC2)n1CCCOC
    5.5, -5.5, 0.0, ., 0.713, ., -2.2, ., ., .
COc1cccc(CNCC(O)(c2ccc(Cl)cc2)c2ccc(Cl)cc2)c1
    4.8, -5.8, 0.2, ., 0.694, ., 25.1, ., ., .
CCOc1ccc(-c2nc[nH]c2[N+](=O)[O-])cc1
    3.1, 0.2, 0.0, i, 0.677, 0.2, -19.0, 11.7, 11.2, 13.2
COc1ccc(C=O)cc1COc1ccc(C)cc1[N+](=O)[O-]
    4.4, -2.9, -1.2, ., 0.738, ., -5.4, 6.1, -7.9, -1.8
Cc1ccccc1C(=O)N1CCN(c2ccc(NC(=S)NC(=O)c3ccco3)cc2)CC1
    3.1, -1.9, 0.4, i, 0.69, 10.6, 12.6, -7.3, -18.9, 0.1
Cc1ccc(C)c(NC(=O)Cn2c(=O)n(-c3ccc(CC(=O)NCC4CCCO4)cc3)c(=O)c3ccccc32)c1 (centres undefined)
    2.4, -7.4, 0.5, ., 0.686, -4.3, 5.1, 9.5, 8.3, -11.5
[N-]=[N+]=NC1CC(CO)OC1n1ccc(=O)[nH]c1=O (centres undefined)
    -0.6, ., 0.2, i, 0.712, -0.1, 19.5, 10.0, 4.0, 4.8
N#CCOc1nc(N2CCCC2)nc(N2CCCC2)n1
    1.2, -2.8, -0.4, ., 0.716, ., -0.2, ., ., .
COC(=O)CCNC(=O)Cc1c(C)n(C(=O)c2ccc(Cl)cc2)c2ccc(OC)cc12
    3.4, ., -0.5, i, 0.7, 5.3, 9.2, -2.8, -5.4, -0.5
CCN1C(=O)[C@H]2[C@@H](c3ccc(Cl)cc3)N3C(=O)CN(CCOC)C(=O)[C@@]3(Cc3ccccc3)[C@H]2C1=O
    1.2, -1.6, -0.4, i, ., -0.7, 0.5, 2.2, 10.3, 4.3
Cc1ccc2cc(CCNC(=O)c3cc4ccccc4o3)c(=O)[nH]c2c1C
    -0.3, ., -0.2, i, 0.752, -10.3, 1.4, -3.8, 2.5, 1.5
CN1Cc2cc(C(=O)c3ccccc3O)cnc2NC1=O
    -10.4, 1.3, -1.5, ., 0.732, ., -6.1, ., ., .
CCOC(=O)C1CCCN(C(=O)c2ccccc2SCCOC)C1 (centres undefined)
    4.0, -3.2, -0.2, ., 0.689, ., 1.8, 5.2, 14.3, -1.1
CCCCn1nnnc1NCc1ccc(C)s1
    -1.3, 0.7, 0.5, ., 0.738, ., -11.2, ., ., .
CC(C)(Oc1ccc(Cl)cc1)C(=O)OCC(=O)N1CCN(c2ccccc2)CC1
    -0.7, 1.3, 0.2, i, 0.695, 10.4, -7.1, -2.3, -25.6, -2.1
CCC(C)(C)NC(=O)C(c1cccs1)N(CC1CCCO1)C(=O)Cn1nnc2ccccc21 (centres undefined)
    -4.5, -4.5, 0.4, ., 0.731, ., -5.9, ., ., .
COc1ccccc1Nc1nc(-c2ccccc2O)nc2ccccc12
    4.3, ., 1.5, i, 0.711, -0.2, 22.7, 15.8, 8.8, -1.5
O=S(=O)(Nc1ccc2nc(N3CCOCC3)sc2c1)c1ccc(Cl)cc1
    1.0, 1.9, -0.3, i, 0.697, -1.3, ., -45.6, -65.3, -1.5
COc1ccccc1N(CC1CO1)S(=O)(=O)c1ccccc1 (centres undefined)
    0.4, -1.3, -0.5, i, 0.663, -1.5, -11.4, -0.9, -6.3, 2.6
COc1cc(OC)c(NC(=O)CC(=O)Nc2cc(Cl)c(OC)cc2OC)cc1Cl
    2.4, -2.7, 0.0, i, 0.677, -9.4, 8.7, 7.2, 2.6, -1.4
CCCOC(=O)c1ccc(NC(=O)/C=C/c2cccs2)cc1
    0.3, -6.1, -0.6, ., 0.625, ., -3.0, ., ., .
COc1ccc(OC)c(NC(=O)CCCc2ccccc2)c1
    3.3, -4.3, -0.2, i, 0.654, 1.6, -1.9, -9.0, -13.6, -0.3
CCOC(=O)c1c(N=CN(C)C)c2cc([N+](=O)[O-])cnc2n1C
    7.0, 5.0, 0.5, i, 0.668, -17.9, 1.5, -24.4, -29.2, -9.8
Cc1cc(C)c2c(C)nn(-c3ccccc3)c2n1
    -11.3, -4.3, -0.1, ., 0.709, ., 4.4, ., ., .
Cc1cc(C)cc(NC(=S)NC(=O)Cc2ccccc2)c1
    3.0, -8.3, 1.2, i, 0.681, 2.3, -3.3, -32.0, -30.5, -5.4
O=C(CN1C(=O)NC2(CCCCCC2)C1=O)Nc1ccccc1[N+](=O)[O-]
    4.2, -2.1, -0.7, i, 0.684, -0.1, ., -8.2, 3.6, -4.0
